Screening data (PubChem BioAssay)
SIAE inh: human SIAE inhibitors, primary screen, biochemical, fluorescence polarization, FP-Rh probe, 1536-well HTS; 370,000 compounds, 0.69% hits; inhibition, % at 9.66 µM; Sialate O-acetylesterase (Homo sapiens), Q9HAT2; SIAE FP-Rh probe binding; AID 1053197, 2014;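 active = inhibition above a cutoff: mean of compounds within the control limits plus 3 SD of those, cut at about 17% in these data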;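 also: 0% = plate median of compound wells and 100% = probe without SIAE protein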
TCR-CD3 inh: inhibitors of human TCR-CD3 interaction, primary screen, biochemical, fluorescence, TAMRA-labeled TCR probe; T-cell receptor (TCR); inhibition, % at 9.4 µM; 360,000 compounds, 0.37% hits; AID 651800, 2012; in the data active = inhibition above about 19%;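 also: recombinant mutant TCR 2C K166C tagged with TAMRA read by polarization; 0% = receptor in buffer alone and 100% = receptor with positive control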
UHRF1 binding: UHRF1 methylated DNA binding inhibitors, primary screen, counter-screen for MBD2 inhibitor project, biochemical, TR-FRET, human UHRF1, single concentration. E3 ubiquitin-protein ligase UHRF1 (Homo sapiens), Q96T88. UHRF1 binding to methylated oligo. inhibition, % at 4.4 µM. 370,000 compounds, 0.75% hits. AID 687016, 2013; in the data active = inhibition above about 21%;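 also: UHRF1 SRA domain binding a hemimethylated CpG hairpin DNA probe; 0% = median of test compound wells and 100% = reference inhibitor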
rCAG binder: binders of r(CAG) RNA repeats, primary screen, biochemical, fluorescence. r(CAG) RNA repeat, TO-PRO-1 dye displacement fluorescence. inhibition, % at 3 µM. 370,000 compounds, 1.3% hits. AID 651821, 2012;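 active = inhibition above the plate cutoff, the mean of all test compounds on that plate plus 3 SD, cut at about 35% in these data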;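 also: 0% = DMSO alone and 100% = 100 µM mitoxantrone as full dye displacement; higher means more dye released from RNA so lower well fluorescence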
NPR1 activator: GC-A stimulated cGMP production enhancers – HEK293 GC-A cells, cGMP TR-FRET, EC30 ANP, primary screen. 0% at EC30 ANP, 100% saturating ANP. activation, % at 10 µM. 370,000 compounds, 0.14% hits. Atrial natriuretic peptide receptor 1 (Homo sapiens), P16066; in the data active = activation above about 40%
ABHD4 inh: ABHD4 inhibitors, primary screen, biochemical, fluorescence polarization, mouse | AID 720543, 2013 | purified mABHD4, FP-Rh probe fluorescence polarization | (Lyso)-N-acylphosphatidylethanolamine lipase (Mus musculus), Q8VD66 | inhibition, % at 8.92 µM | 370,000 compounds, 0.54% hits;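 active = inhibition exceeding the mean over every tested compound plus 3 SD, cut at about 30% in these data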;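 also: 0% = plate median of compound wells and 100% = S159A mutant with DMSO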
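Test system: mABHD4 protein; Read-out basis: % inhibition; Incubation: 45 min + 60 min at 25 °C; Repeats: single replicate; Technique: fluorescence polarization with parallel and perpendicular emission, 525/598 nm; Compound: 8.92 µM, single dose; Benchmarks: full inhibition S159A mutant plus DMSO, zero as sample-well median.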
MBD2 inh: inhibitors of MBD2 binding to methylated DNA, primary screen, biochemical, TR-FRET, DNA-binding domain, human | 370,000 compounds, 0.31% hits | inhibition, % at 4.4 µM | Methyl-CpG-binding domain protein 2 (Homo sapiens), Q9UBB5 | AID 686964, 2013 | MBD2 binding to methylated oligonucleotide; in the data active = inhibition above about 13%
Target sequence (Q9UBB5 whole entry, looked up, the tested form may be a part): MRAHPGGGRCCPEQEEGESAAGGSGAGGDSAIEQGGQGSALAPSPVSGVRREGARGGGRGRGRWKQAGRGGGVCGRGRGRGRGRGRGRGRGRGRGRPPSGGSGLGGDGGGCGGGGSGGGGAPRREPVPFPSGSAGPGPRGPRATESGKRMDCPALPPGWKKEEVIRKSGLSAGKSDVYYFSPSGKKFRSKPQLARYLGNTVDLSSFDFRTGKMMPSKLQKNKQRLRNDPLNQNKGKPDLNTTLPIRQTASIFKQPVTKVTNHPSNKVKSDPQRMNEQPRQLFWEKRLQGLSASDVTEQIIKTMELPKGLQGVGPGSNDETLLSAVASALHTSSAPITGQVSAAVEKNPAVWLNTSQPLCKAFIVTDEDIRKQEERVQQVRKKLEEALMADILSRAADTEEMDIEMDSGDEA
GC-B act: human GC-B receptor activators, primary screen, HEK293 GC-B cells, cGMP TR-FRET, EC30 CNP. activation, % at 10 µM. 370,000 compounds, 0.11% hits. 0% at EC30 CNP, 100% saturating CNP. Atrial natriuretic peptide receptor 2 (Homo sapiens), P20594. AID 1920062, 2024;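 active = activation at 10 µM reaching about 35% in either raw or pattern-adjusted values, limit read from the data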
PRMT1 FP inh: PRMT1 methyltransferase inhibitors, primary screen, biochemical, fluorescence polarization. inhibition, % at 2.79 µM. 370,000 compounds, 1.3% hits. Protein arginine N-methyltransferase 1 (Homo sapiens), Q99873. recombinant PRMT1, activity-based probe fluorescence polarization;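 active = inhibition above about 21% made by adding two undisclosed values, limit read from the data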
Target sequence (Q99873 whole entry, looked up): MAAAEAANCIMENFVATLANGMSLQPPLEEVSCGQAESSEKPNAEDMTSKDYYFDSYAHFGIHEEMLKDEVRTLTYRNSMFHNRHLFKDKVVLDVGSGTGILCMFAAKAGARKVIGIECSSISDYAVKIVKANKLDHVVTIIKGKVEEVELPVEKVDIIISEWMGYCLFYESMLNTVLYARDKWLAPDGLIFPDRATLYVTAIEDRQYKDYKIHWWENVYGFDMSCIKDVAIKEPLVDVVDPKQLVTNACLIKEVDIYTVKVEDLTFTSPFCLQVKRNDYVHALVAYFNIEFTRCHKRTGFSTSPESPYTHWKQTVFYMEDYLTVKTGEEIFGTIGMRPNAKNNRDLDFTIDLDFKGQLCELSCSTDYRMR
* hit, by the source's call.

No.	structure	SIAE inh	TCR-CD3 inh	UHRF1 binding	rCAG binder	NPR1 activator
1	COc1cc2c(cc1OC)-c1cc(N3CCCCCC3)nc(=O)n1CC2	5	-4	-2	0	7
2	COC(=O)CCC(=O)OC1(C)C(=O)C=C2C=C(C3CC3)N(Cc3ccccc3)C=C2C1=O (stereo not given)	5	3	-2	1	0
3	Cc1cc(OCc2nc(-c3ccc(NC(=O)c4cccnc4)cc3)no2)ccc1Cl	-2	2	1	1	5
4	O=C1CC(c2cccc(F)c2)C2=C(CCCC2=O)N1 (stereo not given)	2	6	3	5	0
5	O=C(OCC(=O)N1CCN(c2ccccc2)CC1)c1ccc([N+](=O)[O-])s1	0	-3	-3	-1	0
6	O=c1c(NCCc2ccc(Cl)cc2)c(-c2ccccc2)c1=O	-5	4	2	2	3
7	Cc1nc(SCC(=O)N2CCNC2=O)c2ccccc2n1	2	6	-2	2	1
8	COc1ccc(NC(=O)CCCN2C(=O)CN(C)C2=O)c(OC)c1	9	8	0	6	-3

No.	ABHD4 inh	MBD2 inh	GC-B act	PRMT1 FP inh
1	-5	1	2	0
2	12	-6	-1	6
3	0	3	-1	0
4	1	-3	0	0
5	-4	1	-3	-1
6	-1	7	-3	2
7	-1	1	-1	1
8	14	-9	-4	1

More results
No.	structure	SIAE inh	TCR-CD3 inh	UHRF1 binding	rCAG binder	NPR1 activator
9	COc1ccc(-c2nnc(-c3ccc(N(C)C)cc3)o2)cc1	-5	-10	5	1	4
10	COCCCNc1nc2ccccc2nc1NS(=O)(=O)c1ccc(C)cc1	4	6	-1	19	4
11	Cc1cc(-c2csc(N)n2)c(C)n1CCc1ccccc1	-1	-6	5	17	-6
12	Cc1cc(C(=O)NNC(=S)NC(C)c2ccccc2)c2ccccc2n1 (stereo not given)	0	-2	2	31	0
13	COc1ccc(-c2nnc(SCCC(=O)O)n2C)cc1OC	6	-3	-2	0	2
14	O=C(O)c1ccc2nc3c(nc2c1)-c1ccccc1C3=O	-5	-11	-5	2	2
15	CCOC(=O)C1CCCN(C(=S)NC(=O)/C=C/c2ccc(F)cc2)C1 (stereo not given)	-4	-9	-1	-5	1
16	Cc1ncc(CO)c(/C=N/NC(=O)c2ccc(O)cc2)c1O	8	13	-7	0	2

No.	ABHD4 inh	MBD2 inh	GC-B act	PRMT1 FP inh
9	-12	3	0	5
10	1	-3	1	1
11	-5	9	4	13
12	18	-5	2	1
13	8	0	3	-1
14	-4	-14	3	4
15	0	-2	2	-2
16	-4	-9	5	6

Next compounds follow:
No.	structure	SIAE inh	TCR-CD3 inh	UHRF1 binding	rCAG binder	NPR1 activator
17	CC1(C)c2[nH]c3ccccc3c2C[C@H]2C(=O)N(CCCCCO)CC(=O)N21	3	-3	2	2	1
18	CCn1c(SCC(=O)O)nc2sc3c(c2c1=O)CCC3	2	5	19	6	4
19	Cc1c(Cl)cccc1NC(=S)NC1CCN(C(C)C)CC1	1	4	-2	-2	-3
20	O=C(O)CNC(=O)c1ccc(Sc2ccccc2)c([N+](=O)[O-])c1	-2	2	-1	9	6
21	c1ccc(-c2cnc(-c3cccnc3)o2)cc1	0	-2	-4	-3	-2
22	C/C(=N\NC(=O)c1ccc(NS(=O)(=O)c2cccs2)cc1)c1ccc(Cl)cc1	2	9	-1	14	-2
23	COc1ccc(CC(Cc2ccc(OC)c(OC)c2)NC=O)cc1OC	5	1	-1	-1	0
24	O=C(CNC(=O)c1ccc(Br)o1)NNC(=O)c1ccccc1O	2	35*	0	3	1

No.	ABHD4 inh	MBD2 inh	GC-B act	PRMT1 FP inh
17	0	0	7	-9
18	8	4	3	4
19	0	-2	-4	-2
20	2	-2	1	-2
21	-1	6	-3	0
22	-10	3	3	1
23	-4	0	2	0
24	10	0	-3	0

Other structures follow:
No.	structure	SIAE inh	TCR-CD3 inh	UHRF1 binding	rCAG binder	NPR1 activator
25	CCCC(C(=O)NC1CCCC1)N(CCCN1CCOCC1)C(=O)c1snc(C(N)=O)c1N (stereo not given)	-5	4	-4	-6	-13
26	COc1cccc(/C=C(/C(=O)OCC(=O)NC2CCCCCCC2)c2ccccc2)c1	-8	0	-1	0	-5
27	O=c1oc2c(O)cccc2cc1-c1nc2ccccc2[nH]1	16	6	-22	-251	15
28	O=C(CSc1n[nH]c(-c2cccs2)n1)NC1CCS(=O)(=O)C1 (stereo not given)	-12	6	0	2	1
29	Cc1cc(=O)oc(C)c1C(=O)N[C@@H]1CCCCNC1=O	3	-2	0	-1	-4
30	CCCn1c(C)cc(-c2csc(N)n2)c1C	14	5	5	13	3
31	Cc1ccccc1[C@@]1(C)ON(c2ccccc2C(F)(F)F)C1=O	1	0	-5	-1	1
32	CC(C)C[C@H](NC(=O)c1[nH]cnc1C(=O)N[C@@H](C)C(=O)OCc1ccccc1)C(=O)OC(C)(C)C	-14	0	0	-4	-1

No.	ABHD4 inh	MBD2 inh	GC-B act	PRMT1 FP inh
25	1	2	-9	-1
26	-14	-2	4	-1
27	1	-5	5	60*
28	-7	3	-3	5
29	2	0	-1	0
30	27	8	5	14
31	7	-1	-2	1
32	-23	-2	0	0

(further entries)
No.	structure	SIAE inh	TCR-CD3 inh	UHRF1 binding	rCAG binder	NPR1 activator
33	COc1ccccc1N1C(=O)N(CC(=O)C(C)(C)C)c2ccccc2S1(=O)=O	-2	1	0	1	-4
34	C=C(C)Cn1c(C2CC(=O)N(Cc3ccccc3)C2)nc2ccccc21 (stereo not given)	-1	-8	-1	0	-4
35	O=C(CN1C(=O)S/C(=C\c2ccccc2)C1=O)NC1CCS(=O)(=O)C1 (stereo not given)	12	4	0	-1	1
36	Oc1ccccc1-c1nnc(SCCN2CCOCC2)n1Cc1ccccc1	15	43*	3	1	-5
37	CC(C)(C)NC(=O)CN(C(=O)CCN1CCCc2ccccc21)C(C)(C)C	13	-6	-2	-8	2
38	CCCc1nnc(-c2ccc(OC)cc2)o1	0	-3	1	-1	1
39	Cc1ccc2cc(C(c3nnnn3Cc3ccccc3)N3CCc4ccccc43)c(=O)[nH]c2c1C (stereo not given)	-2	6	-19	15	1
40	O=C(CSc1nnc(SCc2ccccc2)s1)N/N=C/C=C/c1ccccc1[N+](=O)[O-]	-38	-12	0	6	-4

No.	ABHD4 inh	MBD2 inh	GC-B act	PRMT1 FP inh
33	0	-3	-2	-2
34	7	-1	-12	-4
35	7	0	7	11
36	17	0	-1	3
37	5	4	0	0
38	2	-4	-9	-2
39	1	-12	2	15
40	-25	6	-4	4

Following part.
No.	structure	SIAE inh	TCR-CD3 inh	UHRF1 binding	rCAG binder	NPR1 activator
41	O=C(NC1CCC(O)CC1)c1cccnc1Sc1ccccc1Cl (stereo not given)	-3	-9	1	-4	4
42	Cc1ccc2[nH]c(=O)c(C(c3nnnn3Cc3ccccc3)N3CCc4ccccc43)cc2c1 (stereo not given)	4	0	-2	8	0
43	O=C(CN1C(=O)S/C(=C\c2ccccc2F)C1=O)Nc1ccccc1O	-8	-7	-5	20	4
44	O=C(CSc1n[nH]c(-c2cccs2)n1)N1CCCCC1	-7	10	1	0	2
45	Cc1nn(Cc2ccccc2Cl)c(C)c1NC(=O)c1ccn(C)n1	2	-9	15	1	4
46	C/C(=N\NC(=O)c1ccc(NS(=O)(=O)c2cccs2)cc1)c1cccs1	-9	-7	1	8	-3
47	COc1ccc(/C=C/C2=Nc3ccccc3NC(C)(C)C2)cc1OC	0	-1	-2	4	0
48	O=C(c1csc2c1CCCC2)n1cccn1	6	4	-1	1	2

No.	ABHD4 inh	MBD2 inh	GC-B act	PRMT1 FP inh
41	-4	5	2	0
42	9	2	-4	6
43	-8	-6	2	22*
44	0	1	-13	-7
45	-5	0	0	-3
46	3	0	-4	4
47	8	-2	2	2
48	7	1	3	1

Three of the entries above in order of the TCR-CD3 inh value, highest first:
| cpd | Compound | TCR-CD3 inh |
| --- | --- | --- |
| 44 | O=C(CSc1n[nH]c(-c2cccs2)n1)N1CCCCC1 | 10 |
| 43 | O=C(CN1C(=O)S/C(=C\c2ccccc2F)C1=O)Nc1ccccc1O | -7 |
| 45 | Cc1nn(Cc2ccccc2Cl)c(C)c1NC(=O)c1ccn(C)n1 | -9 |

Later entries.
No.	structure	SIAE inh	TCR-CD3 inh	UHRF1 binding	rCAG binder	NPR1 activator
49	CCc1ccc(NCc2cc3c(C)nn(-c4ccccc4)c3[nH]c2=O)cc1	-32	-2	3	2	0
50	C=CCn1c(SCC(=O)c2cccs2)nnc1-c1cccc(OC)c1	0	5	-1	-2	-6
51	COc1ccc(-c2c(C#Cc3ccc(N(C)C)cc3)c3ccccc3n2C)cc1	6	5	12	5	6
52	CSc1ccc(/C=C/C(=O)OCC(=O)NC2CCCCCC2)cc1	6	-6	1	0	5
53	O=S(=O)(Nc1ccc(Nc2ccccc2)cc1)c1ccc(F)cc1	18*	-7	1	4	3
54	C/C(=N\NC(=O)c1ccc(NS(=O)(=O)c2cccs2)cc1)c1ccncc1	-8	10	3	12	1
55	CNC(=O)NC(=O)C(OC(=O)CCNS(=O)(=O)c1ccccc1)c1ccccc1 (stereo not given)	-5	4	-2	-5	3
56	COCCn1nnnc1C(c1cc2cc(C)ccc2[nH]c1=O)N1CCc2ccccc21 (stereo not given)	0	-6	-1	2	-7

No.	ABHD4 inh	MBD2 inh	GC-B act	PRMT1 FP inh
49	0	2	-6	0
50	4	4	-5	3
51	12	0	1	-1
52	-14	8	-4	-1
53	3	4	-2	5
54	-7	5	4	-4
55	-4	-6	3	0
56	0	0	-7	4

New compounds follow:
No.	structure	SIAE inh	TCR-CD3 inh	UHRF1 binding	rCAG binder	NPR1 activator
57	Cc1ccc(NC(=O)N2CCCC2C(=O)Nc2c(C)cc(C)cc2C)cc1 (stereo not given)	9	9	0	2	2
58	O=CC1=C(N2CCOCC2)/C(=C/c2ccc(Cl)cc2)CC1	0	1	1	-4	-14
59	CSc1cccc(N2C(=O)C3CCCN3C2=S)c1 (stereo not given)	-5	15	-2	0	2
60	CCOC(=O)c1sc(NC(=O)Cc2c(F)cccc2Cl)nc1C	-5	3	4	-2	3
61	O=C(NCCNC(=O)c1cccs1)c1ccco1	6	2	-2	4	1
62	Cc1cccc(C(=O)NNC(=O)c2ccccc2C)c1	2	1	0	5	-2
63	C=CCSc1n[nH]c(-c2cccs2)n1	4	2	1	0	1
64	N#Cc1ccc(/C=N/NC(=O)c2ccccc2F)cc1	2	2	0	4	6
65	Cn1c(SCC(=O)NNC(=O)c2ccccc2O)nnc1-c1ccccc1	1	48*	-4	6	2
66	Cc1ccc(S(=O)(=O)N=C2SCCCS2)cc1	1	-10	1	3	-6
67	O=C(CSc1n[nH]c(-c2cccs2)n1)NCc1cccs1	-1	-6	3	8	-4

No.	ABHD4 inh	MBD2 inh	GC-B act	PRMT1 FP inh
57	-1	-1	5	-1
58	8	4	-5	9
59	-2	4	3	0
60	5	-4	-2	-6
61	2	-2	5	0
62	-8	-3	-7	-4
63	-1	-2	9	-6
64	2	-2	3	-4
65	12	-2	-5	0
66	-4	1	5	2
67	-14	-3	2	-1

The list is partial. The share of hits here may be higher or lower than overall.
